Assay outcomes (PubChem)
VDR inh: vitamin D3 receptor (human) inhibition; 400,000 tested, 0.93% active; VDR-SRC2-3 peptide fluorescence polarization, 2 h; Potency, µM, without a hit: max response, negative = inhibition, hits mostly inhibitors; P11473; active = well fitted inhibition curve with a large enough effect; inconclusive = small, poorly fitted or top-dose-only effect, or another doubt; inactive = no such curve, though single readings can be large or run the other way; note: series mostly up to about 120 µM
Target sequence (P11473 whole entry, looked up): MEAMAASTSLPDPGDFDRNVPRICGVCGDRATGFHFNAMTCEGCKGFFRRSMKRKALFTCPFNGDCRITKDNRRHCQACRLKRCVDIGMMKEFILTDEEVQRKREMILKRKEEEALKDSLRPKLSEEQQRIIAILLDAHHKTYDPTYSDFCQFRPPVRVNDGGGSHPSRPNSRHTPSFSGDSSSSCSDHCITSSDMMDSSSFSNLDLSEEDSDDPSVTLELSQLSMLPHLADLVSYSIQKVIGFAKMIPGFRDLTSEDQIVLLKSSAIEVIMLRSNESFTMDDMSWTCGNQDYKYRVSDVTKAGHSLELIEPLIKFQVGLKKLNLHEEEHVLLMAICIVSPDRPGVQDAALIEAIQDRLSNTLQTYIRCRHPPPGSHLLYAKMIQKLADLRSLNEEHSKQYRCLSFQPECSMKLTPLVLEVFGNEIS
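After 23 nl compound addition and a short centrifugation, plates sat for 2 hours at ambient temperature; polarization of fluorescence then indicated loss of VDR binding to peptide SRC2-3.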
* marks the source's active call; other numbers are inactive results; ? = inconclusive; & = joins results of further samples. % is set by controls: 0 for no effect and ±100 for the full control effect; potency is the fitted concentration of half-maximal effect. Only part of the results is shown. The share of hits here may be higher or lower than overall.

SMILES	VDR inh
Cc1cc(C)c(S(=O)(=O)c2ccccc2F)c(=O)[nH]1	7%
COc1cc(C(=O)NCC(=O)N/N=C/c2ccco2)cc(OC)c1OC	4%
CCc1ccc(OCCn2ccnc2)cc1	-21%
CCCC(=O)Nc1cccc(NC(=O)c2ccc([N+](=O)[O-])cc2Cl)c1	-8%
CC1CCN(Cc2nc(Cl)c3c4c(sc3n2)CCC4)CC1	-16%
COc1ccc(N2CCN(C(=O)CCn3cnc4onc(-c5ccc(F)cc5)c4c3=O)CC2)cc1	13%
Cc1c(NS(=O)(=O)c2ccc(N=NN(C)C)cc2)c(=O)n(-c2ccccc2)n1C	-3%
CC1CCN(C(=O)COC(=O)CCC(=O)c2ccc(Cl)cc2)CC1	0%
NC(=O)COC(=O)CC12CC3CC(CC(Br)(C3)C1)C2	9%
COc1cccc(CN2CCN(Cc3[nH]c4ccccc4c3C)CC2CCO)c1 (stereo not drawn)	-3%
CCN(C(=O)COC(=O)C1CCN(S(=O)(=O)c2c(Cl)cccc2Cl)CC1)C1CCCCC1	-10%
O=C(/C=C/c1ccc(F)cc1)NC(=S)Nc1ccccc1O	21%
CCSc1nc2ccccc2c(=O)n1CCc1ccc(OC)c(OC)c1	12%
COc1ccccc1N(C)S(=O)(=O)c1ccc(C(=O)Nc2cc(F)ccc2C)cc1	-12%
Fc1ccc2cc(-c3cccnc3)ncc2c1	-7%
Cc1ccccc1CS(=O)(=O)c1ncc(Cl)c(C(=O)Nc2nnc(C(C)C)s2)n1	?
COc1ccc(NC(=O)Nc2c(SC)nsc2SC)cc1	7%
CN(C)C(=O)c1ccccc1NC(=O)Cc1cccc2ccccc12	13%
CCc1nnc2c(Nc3ccc(Br)c(C)c3)nc3ccccc3n12	3%
Cc1cc(/C(N)=N/OC(=O)Nc2ccccc2)no1	8%
CCCCNC(=O)CN1C(=O)NC2(CCOc3ccccc32)C1=O (stereo not drawn)	-14%
Cc1cccc(CCNC(=O)C2CCC(CNc3c(N4CCCC4)c(=O)c3=O)CC2)c1 (stereo not drawn)	-6%
Oc1[nH]c2c(Cl)cc(Cl)cc2c1N=NC(=S)NCC1CCCO1 (stereo not drawn)	-2%
O=C(Nc1ccc(S(=O)(=O)Nc2ncccn2)cc1)c1ccc(S(=O)(=O)N2CCCC2)cc1	6%
CCOc1ccc(C(=O)NC(C(=O)NCCc2ccc(S(N)(=O)=O)cc2)C(C)C)cc1 (stereo not drawn)	?
COc1ccc(-n2cccc2/C=C2\C(=N)N3N=C(c4ccco4)SC3=NC2=O)cc1	1%
COc1cc(/C=N/NC(=O)c2nnn(-c3nonc3N)c2C(C)C)ccc1O	-5%
C=Cc1ccc(Cn2c(=O)n(-c3ccc(C)cc3)c(=O)c3c2c2cc(OC)ccc2n3C)cc1	5%
CCOC(=O)c1c(/N=C/c2cccc([N+](=O)[O-])c2O)sc2c1CCC2	-32%
COc1ccccc1N1CCN(C(=O)c2ccc(CS(=O)(=O)c3ccccc3OC)o2)CC1	10%
O=C1CCSC2(C(=O)N(Cc3ccc(F)cc3)c3ccccc32)N1c1ccccc1 (stereo not drawn)	10%
COc1ccccc1NC(=O)c1cc(Cl)nnc1Cl	-7%
COc1ccc2c(=O)c(N3C(=O)c4ccccc4C3=O)coc2c1	-11%
CCOc1ccc(OCC)c(NS(=O)(=O)c2ccc3[nH]c(=O)ccc3c2)c1	10%
O=C(COc1ccc(-n2cnnn2)cc1)Nc1ccc(Br)cc1F	-6%
CS(=O)(=O)c1ccc(C(=O)OCC(=O)N2CCCc3ccccc32)cc1	?
Nc1ccc(C(=O)n2c3ccccc3c3ccccc32)cc1	-10%
Cc1ccc2nc(SCC(=O)Nc3nnc(SCC(N)=O)s3)[nH]c2c1	-9%
O=C(CSc1ccc2nnc(-c3cccc(F)c3)n2n1)N1CCCc2ccccc21	11%
COc1ccc(N2C(=O)CCC(C(=O)N3CCN(c4ccccn4)CC3)C2c2ccc(F)cc2)cc1 (stereo not drawn)	5%
CCOC(=O)c1cc(C(=O)NN)c(=O)[nH]c1C	9%
CCCCC1=CC2=C(c3ccco3)C(=O)C(C)(OC(=O)c3ccc(OC)cc3)C(=O)C2=CN1CC(C)C (stereo not drawn)	?
O=S(=O)(/N=C(/Nc1ccc(F)cc1F)c1ccccc1)c1ccccc1	-16%
CCCCN(CC)CCCNC(=O)c1cc2c(=O)[nH]c3ccccc3c2s1	-12%&-7%
COc1ccccc1NC(=O)c1nnn(CC(=O)Nc2cccc(SC)c2)c1N	9%
Cc1cc(S(=O)(=O)N2CCN(c3ncccn3)CC2)ccc1-n1cnnn1	-2%
C/C(=N/NC(=O)CNS(=O)(=O)c1ccccc1)c1ccc(Br)cc1	-17%
COCC(C)NC(=O)CSc1nc2ccccc2n1CCc1ccccc1 (stereo not drawn)	-11%
O=C1C=C(NS(=O)(=O)c2ccccc2)C(=O)c2ccccc21	-18%
COCCn1c(=O)c(C)nc2cnc(Oc3ccccc3)nc21	-6%
CCOC(=O)CC1OC(=O)c2cc3c(cc21)C(=O)OC3CC(=O)OCC (stereo not drawn)	?
O=C(COC(=O)/C=C/c1ccc(OC(F)F)cc1)NC1CCCC1	-4%
COc1cccc(C(=O)Nc2cc(S(=O)(=O)N3CCOCC3)ccc2N2CCOCC2)c1	11%
COc1ccccc1-c1ccc(SCC(=O)NCCc2ccccc2)nn1	6%
O=C(Nc1ccc(N2CCN(C(=O)c3ccccc3)CC2)c(Cl)c1)c1ncn[nH]1	0%
CSc1ccccc1NC(=O)C1=CC(c2ccc3c(c2)OCO3)=NS(=O)(=O)N1C	8%
COc1ccc(NS(=O)(=O)c2ccc(NC(=O)c3ccc(Br)cc3)cc2)nn1	6%
Cc1ccc(NC(=O)C2CCC(=O)N2C(=O)OCc2ccccc2)cc1 (stereo not drawn)	11%
Cc1cccc(-n2nnc(C(=O)NCc3ccccn3)c2N)c1	-10%
COc1ccc(Cl)cc1NC(=O)CN(C)C(=O)COc1ccccc1F	9%
(next part)
SMILES	VDR inh
N#C/C(=N\Nc1cccc(F)c1)C(=N)N1CCCCCC1	-11%
COCC(=O)Nc1ccc(OCc2ccccc2)cc1	-14%
C=CCN(CC=C)S(=O)(=O)c1ccc(NC(=S)NC(=O)/C=C/c2ccc(C)cc2)cc1	-13%
CCOc1cc(N2CCOCC2)c(OCC)cc1NC(=O)Cc1ccccc1OC	-7%
CSCc1cc(N(C)c2ccccc2)nc(-c2ccccc2)n1	-9%
CCCn1c(SCC(=O)NC(C)c2ccccc2)n[nH]c1=O (stereo not drawn)	-19%
COc1ccc(-c2cc3nccc(-c4cc(Cl)c(C)cc4O)n3n2)cc1	-9%
Cc1nn(-c2cc(C(F)(F)F)ccc2Cl)c2nc(C(Cl)(Cl)Cl)[nH]c(=O)c12	-25%
Cc1ccc(NC(=O)C2CCCC2)c(Br)c1	-8%
Cc1nn(Cc2cccc(C(=O)Nc3ccn(Cc4ccccc4)n3)c2)c(C)c1[N+](=O)[O-]	4%
CCCCn1c(-c2cccs2)nc2oc3ccccc3c(=O)c2c1=O	9%
Cc1ccccc1NC(=O)CSc1nnc(-c2ccco2)n1N	?
O=C(COc1ccc(Cl)cc1)Nc1nc(-c2cccs2)cs1	-4%
Cn1nccc1C(=O)N1CCCC(Nc2ccc(F)cc2)C1 (stereo not drawn)	12%
CCC(=O)NC(=S)Nc1ccc(NC(=O)c2ccc([N+](=O)[O-])cc2Cl)cc1	-11%
CCOCCCNC(=O)CN1CCN(Cc2ccc(Cl)cc2)C1=O	-2%
COc1ccc(C2C(=O)c3ccccc3C2=O)cc1OC	25%
O=C(NCc1ccccc1Cl)c1ccc(CS(=O)(=O)c2ccc(Br)cc2)o1	-4%
O=C(O)c1cccc(S(=O)(=O)N2CCCC(c3nc4c(nnn4Cc4ccccc4Cl)c(=O)[nH]3)C2)c1 (stereo not drawn)	-2%
CCC(C)N1CCN(C(=O)C2CCN(S(=O)(=O)c3c(C)noc3/C=C/c3ccco3)CC2)CC1 (stereo not drawn)	15%

Already shown: 16 of the compounds above.
SMILES	VDR inh
CSCc1cc(N(C)c2ccccc2)nc(-c2ccccc2)n1	-9%
CCCn1c(SCC(=O)NC(C)c2ccccc2)n[nH]c1=O (stereo not drawn)	-19%
COc1ccc(-c2cc3nccc(-c4cc(Cl)c(C)cc4O)n3n2)cc1	-9%
Cc1nn(-c2cc(C(F)(F)F)ccc2Cl)c2nc(C(Cl)(Cl)Cl)[nH]c(=O)c12	-25%
Cc1ccc(NC(=O)C2CCCC2)c(Br)c1	-8%
Cc1nn(Cc2cccc(C(=O)Nc3ccn(Cc4ccccc4)n3)c2)c(C)c1[N+](=O)[O-]	4%
CCCCn1c(-c2cccs2)nc2oc3ccccc3c(=O)c2c1=O	9%
Cc1ccccc1NC(=O)CSc1nnc(-c2ccco2)n1N	?
O=C(COc1ccc(Cl)cc1)Nc1nc(-c2cccs2)cs1	-4%
Cn1nccc1C(=O)N1CCCC(Nc2ccc(F)cc2)C1 (stereo not drawn)	12%
CCC(=O)NC(=S)Nc1ccc(NC(=O)c2ccc([N+](=O)[O-])cc2Cl)cc1	-11%
CCOCCCNC(=O)CN1CCN(Cc2ccc(Cl)cc2)C1=O	-2%
COc1ccc(C2C(=O)c3ccccc3C2=O)cc1OC	25%
O=C(NCc1ccccc1Cl)c1ccc(CS(=O)(=O)c2ccc(Br)cc2)o1	-4%
O=C(O)c1cccc(S(=O)(=O)N2CCCC(c3nc4c(nnn4Cc4ccccc4Cl)c(=O)[nH]3)C2)c1 (stereo not drawn)	-2%
CCC(C)N1CCN(C(=O)C2CCN(S(=O)(=O)c3c(C)noc3/C=C/c3ccco3)CC2)CC1 (stereo not drawn)	15%

Later entries.
SMILES	VDR inh
O=C(NCCc1ccccc1)c1ccc(Cn2c(SCc3ccccc3)nc3cccnc32)cc1	10%
CCOC(=O)c1c(C)n(C)c2ccc(OC(=O)c3ccc([N+](=O)[O-])cc3)cc12	8%
COCCCNC(=O)c1cc(OC)c(OC)c(OC)c1	-13%
COCc1ccc(C(=O)OC(C)C(=O)Nc2c(C)n(C)n(-c3ccccc3)c2=O)cc1 (stereo not drawn)	-2%
CCCCn1nc2cc(C(=O)NCc3ccc(OC)cc3)ccc2c1OCC	-12%
CC(C)=CCC/C(C)=C/C=N/NC(=O)c1ccccc1[N+](=O)[O-]	5%
Cc1oc2nc(SCC(=O)Nc3ccc(S(N)(=O)=O)cc3)nc(NC(=O)c3ccccc3)c2c1C	5%
COc1cccc(CCNS(=O)(=O)CCNC(=O)c2cccc(OC)c2)c1	-18%
Cc1c(C)c2cc(Cl)c(O)c(CN3CCCC(C)C3)c2oc1=O (stereo not drawn)	-4%
Cc1occc1C(=O)NCCc1cccc(Cl)c1	-9%
CC1CCCN(c2ccc([N+](=O)[O-])cc2C(=O)c2ccccc2)C1 (stereo not drawn)	-23%
O=C(Nc1cccc(S(=O)(=O)NC2=NCCC2)c1)c1ccccc1F	-17%
Cn1c(=O)[nH]c(=O)c2c1nc(N1CCN(Cc3ccccc3)CC1)n2CCSc1ncccn1	-19%
COc1ccc2c(c1)CCc1c-2n[nH]c1C(=O)NCCC(C)C	-2%
N#CC1(NC(=O)COc2ccc(C(N)=O)cc2)CCCC1	9%
COc1ccc(N2C(=O)C(C)(C)C2c2c(O)ccc3ccccc23)cc1 (stereo not drawn)	-11%
Cc1ccccc1Oc1nc2c(c(=O)n(C)c(=O)n2C)n1Cc1ccc(Br)cc1	12%
COc1ccc(/C(N)=N/OC(=O)c2cccc([N+](=O)[O-])c2C)cc1OC	-2%
CC(C)CCNC(=O)c1cc(S(=O)(=O)N2CCc3ccccc32)cn1C	2%
COc1ccc([N+](=O)[O-])cc1NC(=O)C(C)OC(=O)c1cccnc1 (stereo not drawn)	20%
COc1ccccc1CN(C)C(=O)c1ccc(S(=O)(=O)NCc2ccco2)cc1	-14%
COc1cc2oc3ccccc3c2cc1N(CC(=O)N(C)C)S(=O)(=O)c1ccccc1	-2%
COc1ccc(Br)cc1CNc1ccccc1	-19%
Cc1ccc(S(=O)(=O)NC2CCCCC2)cc1C(=O)N1CCC(C(N)=O)CC1	-4%
CCCCCCOC(=O)c1ccc(NC(=O)c2cc(OC)c(OC)c(OC)c2Br)cc1	21%
O=C(NC1CCCC1)c1ccc2c(=O)n(Cc3ccccc3)c(SCc3ccccc3)nc2c1	16%
O=C(CCCC(=O)N(c1ccc2c(c1)OCCO2)C(C(=O)NC1CCCCC1)c1ccc(Cl)cc1)Nc1ccccn1 (stereo not drawn)	-17%
COc1ccc(CCNC(=O)c2cc(Sc3cccc(Cl)c3)nc3ccccc23)cc1OC	3%
CC(C)OCCCN1C(=O)c2[nH]nc(-c3ccccc3O)c2C1c1ccc(OCc2ccccc2)cc1 (stereo not drawn)	10%
Cn1nnnc1Sc1ncnc2scc(-c3ccc[nH]3)c12	?
CSc1nc(N)n2nc(C(C)(C)C)cc2n1	-1%
O=C(Nc1nnc(SCc2ccc(F)cc2)s1)c1ccco1	-8%
Oc1ccc(Cl)cc1CNC1CCCCC1	-10%
Cc1nc2ccccc2c(=O)n1NC(=O)c1cccnc1Cl	-4%
Cc1[nH]c2ccccc2c1C(=O)CN1C(=O)NC2(CCCCCC2)C1=O	-8%
CCN(CC)C(=O)COC(=O)c1cc(-c2ccco2)nc2ccccc12	12%
C=CCn1c(SCC(=O)Nc2sccc2C(N)=O)nc2ccc(Cl)cc2c1=O	12%
O=C1C2C(c3ccccc3)CC=CC2C(c2cccc([N+](=O)[O-])c2)N1Cc1ccccc1 (stereo not drawn)	-25%
Cc1cccc(-c2noc(-c3cc4ccccc4oc3=O)n2)c1	6%
COC(=O)COc1nsnc1N1CCOCC1	5%
COc1ccc(NC(=O)CSc2nnc(CNC(=O)c3cccs3)o2)c(OC)c1	-9%
